Assay outcomes deposited in PubChem BioAssay by several laboratories.
PKD1 inh – inhibitors of human PKD1 kinase | AID 797 | inhibition, %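 (about 10 µM by stock and volumes)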 | PKD1 kinase fluorescence polarization assay | Q15139 | 200,000 compounds, 0.056% hits;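 active means inhibition of 50% or more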;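 further: controls were vehicle for no effect and a reference inhibitor for full effect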
Target sequence (Q15139 whole entry, looked up): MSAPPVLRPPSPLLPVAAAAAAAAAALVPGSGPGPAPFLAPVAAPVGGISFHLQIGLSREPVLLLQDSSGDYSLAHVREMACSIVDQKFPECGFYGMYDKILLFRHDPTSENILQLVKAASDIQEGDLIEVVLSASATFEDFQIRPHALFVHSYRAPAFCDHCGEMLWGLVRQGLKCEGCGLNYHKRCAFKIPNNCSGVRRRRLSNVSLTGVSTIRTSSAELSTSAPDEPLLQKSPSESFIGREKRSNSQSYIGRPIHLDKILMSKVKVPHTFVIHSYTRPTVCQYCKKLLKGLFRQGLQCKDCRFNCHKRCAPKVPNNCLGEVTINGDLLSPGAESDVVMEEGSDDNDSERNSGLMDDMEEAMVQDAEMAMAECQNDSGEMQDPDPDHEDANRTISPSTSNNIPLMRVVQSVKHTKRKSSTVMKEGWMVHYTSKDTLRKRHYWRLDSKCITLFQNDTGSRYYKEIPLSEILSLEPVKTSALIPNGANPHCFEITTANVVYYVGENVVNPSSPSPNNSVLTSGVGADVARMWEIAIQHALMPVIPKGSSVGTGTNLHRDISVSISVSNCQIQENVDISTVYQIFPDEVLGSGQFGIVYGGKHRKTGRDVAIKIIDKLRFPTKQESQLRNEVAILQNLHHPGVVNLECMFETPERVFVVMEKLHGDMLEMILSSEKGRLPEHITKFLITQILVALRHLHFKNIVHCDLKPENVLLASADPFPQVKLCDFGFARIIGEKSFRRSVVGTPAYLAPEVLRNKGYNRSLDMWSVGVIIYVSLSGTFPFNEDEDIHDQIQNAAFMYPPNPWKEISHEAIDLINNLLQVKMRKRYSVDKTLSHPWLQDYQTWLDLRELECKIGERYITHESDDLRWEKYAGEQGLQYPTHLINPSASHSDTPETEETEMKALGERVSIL
RGS16-Gao HTS – RGS16-Galphao interaction regulator (human); O15492+P09471; AID 1441; binding response (% of control), % at 10 µM; bead-based flow cytometry RGS16-Galphao binding, fluorescence; actives lie on both sides; 220,000 compounds, 0.38% hits;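 active means below 25% or above 175%, edge rows of some plates excepted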;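 further: Galphao activated by GDP with aluminum fluoride before binding; 100% = wells without compound and 0% = beads without RGS; some results beyond the cut were filed as inactive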
GALR2 ag – agonists of human galanin receptor 2 (GALR2) | O43603 | GALR2-expressing cells, agonist activation read-out | activation, %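 (tested at 5 µM)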 | 140,000 compounds, 0.48% hits;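 active means above mean plus 3 SD of all compounds, about 5% in these data, not always enough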;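 further: 0% = vehicle buffer wells and 100% = reference agonist at full effect; tested in CHO reporter cells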
Insulin prom inh – TRM-6 insulin promoter activity inhibition; TRM-6 cells (human fetal islet line), insulin promoter-eGFP reporter, imaging; reporter expression induced with tamoxifen; inhibition, % at 2 µM; 130,000 compounds, 0.9% hits;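 active means inhibition above the mean plus 3 SD, with well images judged a real hit on visual review, cut at about 60% in these data, passing the limit was not always enough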
HSV replic up – increases HSV replication in cells; HSV replication augmentation in cells, fold increase; maximum fold increase; 220,000 compounds, 0.005% hits;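 active means peak rise of 1.5-fold or more in the series; tested in PC3 cells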;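 further: first round at 10 µM; read as green reporter fluorescence; hits show the peak of a series up to 25 µM; 1 = signal of infected wells without compound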
Insulin prom inh cell count – second read-out of Insulin prom inh, no call of its own (marks repeat the call); normalized cell count, %; measured here: cell count, toxicity; reference of the scale not given here;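 cells exposed to compound for 48 h; stained nuclei by imaging scaled within each plate; lower means fewer cells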
HSV replic up primary fold – also measured in HSV replic up; calls as there; fold increase; compound at 10 µM; measured here: primary screen fold increase 10 uM; tested in PC3 cells;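 GFP signal in the first replicate; 1 = infected wells without compound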
* marks the source's active call; other numbers are inactive results; i = inactive; · = no result given. This is a random part of the collection, and some 1.3% of all compounds hit somewhere here.

SMILES	PKD1 inh	RGS16-Gao HTS	GALR2 ag	Insulin prom inh	Insulin prom inh cell count	HSV replic up	HSV replic up primary fold
O=C(COC(=O)c1ccc2[nH]c3c(c2c1)CCCC3)Nc1ccccc1	-14	39	2.7	19	51	i	0.89
O=C1CC(c2ccc(F)cc2)C2=C(CCCC2=O)N1 (centres undefined)	0	101	-0.1	·	·	i	0.92
CC(C)(C)OC(=O)N1CCC2(CC1)Oc1ccc(F)cc1C(=O)C21CC(c2cccnc2)=NO1 (centres undefined)	·	105	·	·	·	i	0.75
Cc1cc(/C=C2/NC(=S)NC2=O)c(C)n1-c1cccnc1	0	97	·	·	·	i	0.96
CC1=C(c2ccc(C)cc2)[N+](=O)C(C)(C)N1[O-]	-1	100	·	-11	98	i	1
O=C(CN1C(=O)c2ccccc2C1=O)OCN1C(=O)c2ccccc2C1=O	0	·	-2.1	-39	60	·	·
NC(=O)C(F)(F)C12OC3C4C5CC(C6C5C3C61)C42 (centres undefined)	-1	97	-1.1	6	73	i	0.9
CCCCNC(=O)C12CCC(C)(C(=O)C1Br)C2(C)C (centres undefined)	2	112	-0.8	-58	70	i	1.1
CC(=O)c1ccc(NC(=O)C2CCN(S(=O)(=O)c3cccc4cccnc34)CC2)cc1	-10	103	-2.2	·	·	i	1.1
CC(C)Oc1cccc(-c2cc(C(=O)N3CCN(S(C)(=O)=O)CC3)c3ccccc3n2)c1	-2	41	0.2	19	123	i	0.89
COc1ccccc1C(=O)C1CCCN(Cc2cn[nH]c2C2CCCCC2)C1 (centres undefined)	-3	100	·	·	·	i	0.91
CCN(CC)CCCN1C(=O)CSC1c1ccc2c(c1)OCO2 (centres undefined)	2	101	-1.1	·	·	i	1.1
Cc1nn(-c2cccc(Cl)c2)c(Cl)c1/C=N/NC(=O)c1cccs1	-2	55	5.0*	18	50	i	0.92
CN(CCC#N)C(=S)Nc1ccc(S(=O)(=O)N2CCOCC2)cc1	-4	103	·	-20	119	i	1
COc1ccccc1N1CCN(C(=O)c2ccc(Cn3c(=O)[nH]c4ccsc4c3=O)cc2)CC1	·	102	·	·	·	i	0.83
CSc1ncccc1C(=O)NCCc1ccc(Cl)cc1	2	105	·	33	88	i	1
CN(C)C(=O)CSc1nnc([C@H](Cc2ccccc2)NC(=O)OC(C)(C)C)o1	·	107	·	·	·	i	1
Cc1ccc(C)c(NC(=O)C(Sc2cccc[n+]2[O-])c2ccccc2)c1 (centres undefined)	-9	99	·	·	·	i	0.67
CCn1nc(C(=O)OC(C(=O)c2c[nH]c3ccccc23)c2ccccc2)c2ccccc2c1=O (centres undefined)	-6	92	2.5	9	120	i	0.89
CCC(C)NC(=O)CSc1nc2n[nH]c(C)c2c(=N)n1-c1ccc(OC)cc1 (centres undefined)	-3	109	-2.2	·	·	i	0.77

A draw from above in order of length of the SMILES, high to low:
SMILES	PKD1 inh	RGS16-Gao HTS	GALR2 ag	Insulin prom inh	Insulin prom inh cell count	HSV replic up	HSV replic up primary fold
CC(C)(C)OC(=O)N1CCC2(CC1)Oc1ccc(F)cc1C(=O)C21CC(c2cccnc2)=NO1 (centres undefined)	·	105	·	·	·	i	0.75
CC(C)Oc1cccc(-c2cc(C(=O)N3CCN(S(C)(=O)=O)CC3)c3ccccc3n2)c1	-2	41	0.2	19	123	i	0.89
CC(=O)c1ccc(NC(=O)C2CCN(S(=O)(=O)c3cccc4cccnc34)CC2)cc1	-10	103	-2.2	·	·	i	1.1
CN(C)C(=O)CSc1nnc([C@H](Cc2ccccc2)NC(=O)OC(C)(C)C)o1	·	107	·	·	·	i	1
CCC(C)NC(=O)CSc1nc2n[nH]c(C)c2c(=N)n1-c1ccc(OC)cc1 (centres undefined)	-3	109	-2.2	·	·	i	0.77
Cc1ccc(C)c(NC(=O)C(Sc2cccc[n+]2[O-])c2ccccc2)c1 (centres undefined)	-9	99	·	·	·	i	0.67
O=C(CN1C(=O)c2ccccc2C1=O)OCN1C(=O)c2ccccc2C1=O	0	·	-2.1	-39	60	·	·
Cc1nn(-c2cccc(Cl)c2)c(Cl)c1/C=N/NC(=O)c1cccs1	-2	55	5.0*	18	50	i	0.92
COc1ccccc1C(=O)C1CCCN(Cc2cn[nH]c2C2CCCCC2)C1 (centres undefined)	-3	100	·	·	·	i	0.91
CN(CCC#N)C(=S)Nc1ccc(S(=O)(=O)N2CCOCC2)cc1	-4	103	·	-20	119	i	1
CC1=C(c2ccc(C)cc2)[N+](=O)C(C)(C)N1[O-]	-1	100	·	-11	98	i	1
CCCCNC(=O)C12CCC(C)(C(=O)C1Br)C2(C)C (centres undefined)	2	112	-0.8	-58	70	i	1.1
CSc1ncccc1C(=O)NCCc1ccc(Cl)cc1	2	105	·	33	88	i	1

(continued)
SMILES	PKD1 inh	RGS16-Gao HTS	GALR2 ag	Insulin prom inh	Insulin prom inh cell count	HSV replic up	HSV replic up primary fold
CC(=O)c1c(C)n(CC(=O)NCc2ccco2)c2ccccc12	-3	96	·	·	·	i	0.98
CN1CC(=O)N(CC(=O)NCc2ccc3c(c2)OCO3)C1=O	0	106	-1.9	36	70	i	1
CC(C(=O)N1CCN(c2ccc(Cl)cc2)CC1)c1ncc(C(F)(F)F)cc1Cl (centres undefined)	-16	102	-0.3	20	175	i	0.96
Cc1nnc(SCC(=O)N2CCCC(C(=O)c3ccc(Cl)cc3)C2)o1 (centres undefined)	-6	100	·	·	·	i	1
O=C(CSc1cccc2cccnc12)N/N=C/c1ccc(O)cc1	·	99	·	·	·	i	1
COCc1nnc(NC(=O)c2ccc(NC(=O)C(C)C)cc2)s1	1	104	-0.9	·	·	i	0.69
Brc1ccc(-c2ccc(/C=N/Nc3nncc(-c4ccccc4)n3)o2)cc1	6	103	-1.6	-19	91	i	1.1
CCCc1cc(=O)oc2c(CN3CCCC3)c(O)c(Cl)cc12	-16	92	6.7	·	·	i	1.1
CNC(=S)N1CCN(c2nc3ccccc3s2)CC1	4	63	·	·	·	i	0.97
CCOc1ccc(Br)cc1CN(CC)CC	·	101	·	·	·	i	1
CC(C)(C)C(=O)N1CCN(c2ccc([N+](=O)[O-])c(NCc3cccnc3)c2)CC1	8	95	·	·	·	i	1.1
O=C(O)c1ccccc1-c1nc(-c2ccccc2)c(-c2ccccc2)[nH]1	-8	103	·	-289	69	i	0.91
CC(=O)Nc1ccc(S(=O)(=O)Oc2ccccc2N2CCCCC2)cc1	·	99	·	·	·	i	1.8
O=C(O)c1cc(N/N=C/c2cccnc2)ccc1Cl	·	97	·	·	·	i	1.1
C/C(=N\NC(=O)c1cc(Cl)ccc1O)c1ccc(Br)s1	0	105	-0.8	27	142	i	0.98
Cc1cc(=O)nc2c3ccccc3n(C(C)C(=O)Nc3c(F)c(F)c(F)c(F)c3F)n12 (centres undefined)	-3	111	·	0	65	i	1.1
CC1CCCN(C(=O)C2CCC(CNc3c(N4CCCCC4)c(=O)c3=O)CC2)C1 (centres undefined)	·	98	·	·	·	i	0.91
Nc1nc(CSc2nnnn2-c2ccc(F)c(Cl)c2)nc(N2CCOCC2)n1	1	·	-0.3	38	88	i	0.73
COc1cc(C(C)=O)ccc1OCC(=O)NCC1(N2CCCCC2)CCCCC1	-4	101	·	-21	118	i	0.91
CCOC(=O)Cc1c(C)nc2c(-c3ccccc3)c[nH]n2c1=O	-16	100	-0.1	0	104	·	·
COc1ccc(-c2cc(C(F)(F)F)nc(N)n2)cc1	-2	103	·	·	·	i	0.99
CCn1c(C(=O)NCCCc2ccccc2)cc2sccc21	-8	114	-0.2	6	83	i	0.88
COc1ccc(C2C(C#N)=C(N)Oc3n[nH]c(C)c32)cc1Cn1nnc2ccccc21 (centres undefined)	7	100	-2.4	16	102	i	0.88
N/C(=N\OC(=O)c1cccc(Cn2cc(C(F)(F)F)ccc2=O)c1)c1ccccc1	·	98	·	·	·	i	1.1
Cn1c(C2=C(O)CN(Cc3ccccc3)C2=N)[n+](C)c2ccccc21	-4	101	·	14	116	i	1.1
CCC(=NCc1ccccc1)C1=C(O)C(C(=O)OC)C(C)(C)CC1=O (centres undefined)	-1	99	-0.3	-36	99	i	1
COc1ccc(NC(=O)CSc2nccn2C)cc1S(N)(=O)=O	-4	107	·	-29	164	i	0.89
Cc1c(Cl)cccc1NC(=O)CNC(=O)c1ccccc1F	2	102	-1.5	·	·	i	0.91
CC(=O)c1cc2c(cc1N/C(=N/S(=O)(=O)c1ccc(C)cc1)c1ccc(Cl)cc1)OCO2	-4	145	0.1	42	118	i	0.92
O=C(CSc1nc2c(sc3ccccc32)c(=O)n1CCc1ccccc1)NCc1ccco1	0	119	-0.9	-36	138	i	0.75
Cc1cccc(C(=O)CC(=O)c2cc(Cl)ccc2O)c1	-3	102	1.5	-17	55	i	0.78
CSc1ccc(CNc2ccccn2)cc1	1	97	-1.8	50	120	i	0.85
COc1ccc(C(=O)N2CCCC(c3ccccc3)C2)cc1 (centres undefined)	-7	100	0.7	-136	131	i	0.86
COC(=O)c1sccc1NC(=O)CSc1ccccc1NS(=O)(=O)c1ccc(F)cc1	5	146	-0.9	17	136	i	0.99
CSc1nnc(C)c(=O)n1COC(=O)/C=C/c1ccc2c(c1)OCO2	-3	93	·	·	·	i	0.87
CCc1ccc(NC(=O)C2CC=CCC2C(=O)O)cc1 (centres undefined)	6	102	-2.1	·	·	i	1
Cc1cccc(CN(CC(=O)N/N=C/c2ccco2)S(=O)(=O)c2ccc(Cl)cc2)c1	-8	105	-0.5	-23	122	i	0.95
Cc1cccc(Nc2ncnc3ccc(Br)cc23)c1	-2	96	·	·	·	i	0.96
CCOC(=O)C1=C(C)Nc2ncnn2C1c1cccnc1 (centres undefined)	-4	97	-0.9	18	67	i	0.83
C=CCn1c(SCC(=O)N2CC(=O)Nc3ccccc32)nc2scc(-c3cccs3)c2c1=O	7	103	-1.4	·	·	i	0.77

Two of these compounds in a different format.
compound: COc1ccc(C(=O)N2CCCC(c3ccccc3)C2)cc1 (centres undefined)
  PKD1 inh = -7
  RGS16-Gao HTS = 100
  GALR2 ag = 0.7
  Insulin prom inh = -136
  Insulin prom inh cell count = 131
  HSV replic up = i
  HSV replic up primary fold = 0.86

compound: COC(=O)c1sccc1NC(=O)CSc1ccccc1NS(=O)(=O)c1ccc(F)cc1
  PKD1 inh = 5
  RGS16-Gao HTS = 146
  GALR2 ag = -0.9
  Insulin prom inh = 17
  Insulin prom inh cell count = 136
  HSV replic up = i
  HSV replic up primary fold = 0.99

Following part.
SMILES	PKD1 inh	RGS16-Gao HTS	GALR2 ag	Insulin prom inh	Insulin prom inh cell count	HSV replic up	HSV replic up primary fold
CC1(C)C=C(c2ccc(C(=O)O)s2)CC(C)(C)N1	1	100	-1.7	4	137	i	1
COc1ccc2cc(CN(CC3CCCO3)C(=O)Nc3ccccc3)c(=O)[nH]c2c1 (centres undefined)	0	104	·	·	·	i	0.92
O=C(CN1CCN(Cc2ccc3c(c2)OCO3)CC1)Nc1cc(S(=O)(=O)N2CCCC2)ccc1Cl	-4	94	·	·	·	i	0.88
Cc1cccc(Nc2nc(N)nc(CCl)n2)c1C	·	100	·	·	·	i	0.64
O=c1[nH]c2ccccc2nc1NCCN1CCOCC1	-2	103	1.1	-41	145	i	0.88
Cc1cc(-c2nc3c4c5c(sc4[nH]c(=O)n3n2)CCC5)c(C)o1	-7	89	-2.3	10	102	i	1
COc1ccc(CCNC(=O)c2sc3cc(C)ccc3c2Cl)cc1	-5	102	-1.5	61	102	i	1
C/C(=N\NC(N)=O)c1cccc(Cl)c1	-7	15	-1.1	19	102	i	0.93
Cc1ccc([N+](=O)[O-])cc1NC(=S)NC(=O)CC(C)(C)C	-11	96	-1.6	47	86	i	0.87
O=C(Cn1cc([N+](=O)[O-])cn1)N1CCc2ccccc2C1	-13	100	·	-14	143	i	0.94
CSc1sc(-c2ccnc(=S)[nH]2)c(-c2ccccc2)c1C#N	·	88	·	·	·	i	1.1
COCCN1C(=O)c2cc(C(=O)Nc3cccc(F)c3)ccc2C1Nc1cccc(F)c1 (centres undefined)	4	101	-0.5	-75	57	i	0.96
CCN(CC)CCn1c(=N)n(CC(=O)c2ccc(Br)s2)c2ccccc21	·	96	·	·	·	i	0.72
Cc1c(C(=O)NNS(=O)(=O)c2ccccc2)sc(=S)n1C	-4	111	-0.8	-20	82	i	0.78
COc1ccc(C(=O)O)cc1S(=O)(=O)Nc1ccc(C)cc1	-3	97	·	·	·	i	1
CCCCNCCCOc1cc(Cl)ccc1Cl	-5	103	-0.7	-43	86	·	·
O=Cc1c(-c2ccc(F)cc2)nc2ccccn12	5	99	·	·	·	i	1
O=C(O)CSc1ncnc2sc3c(c12)CCC3	4	60	-1.0	10	94	·	·
OCCN1CCN(CC(O)COc2ccc(-c3ccccc3)cc2)CC1 (centres undefined)	4	105	0.1	·	·	i	0.98
CC(NC(=O)c1cccnc1)C(c1cccs1)N1CCN(c2ccccc2F)CC1 (centres undefined)	·	97	·	·	·	i	1
